Source: PubChem BioAssay (several laboratories)
Bfl-1 A1 inh: inhibitors of the anti-apoptotic protein A1, read as caspase activation; MEF A1-2A-BIM cells, Caspase-Glo 3/7 luminescence, 3 h; percent of clofoctol response, vehicle zero; caspase activation, % (no concentration beside the values); 330,000 tested, 0.066% active;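 active means over half of replicate activation scores above 10%, or exactly half above 10 with the replicate mean above 10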;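 further: wells of about 30 µL received 50 nL stock; many hits fall short of the cut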
UCH37 DUB inh: blocks the human deubiquitinase UCH37; inhibition, % (concentration not given with the values); purified proteasome/UCH37, Ub-AMC cleavage fluorescence; Q9Y5K5; 330,000 tested, 0.33% active;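 active means mean of two replicates above 20%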;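 further: 0% = compound-free wells with enzyme and 100% = wells lacking proteasome; stock transfer was 100 nL into about 20 µL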
Target sequence (Q9Y5K5 whole entry, looked up): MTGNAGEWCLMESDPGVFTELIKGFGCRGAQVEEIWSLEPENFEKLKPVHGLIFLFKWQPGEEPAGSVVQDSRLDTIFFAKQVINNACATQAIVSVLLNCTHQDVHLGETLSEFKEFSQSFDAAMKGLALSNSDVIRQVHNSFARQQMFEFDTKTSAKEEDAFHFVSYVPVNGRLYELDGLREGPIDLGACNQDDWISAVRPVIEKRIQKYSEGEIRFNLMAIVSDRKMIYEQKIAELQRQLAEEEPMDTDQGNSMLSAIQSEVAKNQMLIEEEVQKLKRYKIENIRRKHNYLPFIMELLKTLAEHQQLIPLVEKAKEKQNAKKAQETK
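Signal – fluorescence, ex 355 nm, em 460 nm · System – Proteasome-bound UCH37 · Input – 0.15 nM proteasome as dispensed · Timing – 30 min preincubation with enzyme, 25 min cleavage at room temperature · Read-out basis – percent inhibition of cleavage signal versus uninhibited and no-proteasome wells · Medium – Tris-HCl pH 7.4 with ATP-MgCl2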
FGF22 binding: binders of recombinant human FGF22 by thermal shift. 340,000 tested, 1.5% active. AID 651658. Q9HCT0. SYPRO orange fluorescence; percent of sucrose octasulfate shift, DMSO zero. calls only at 9.99 µM;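 active means melting point raised past a set limit in the mean and every replicate; three in four hits are not shown here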
Target sequence (Q9HCT0 whole entry, looked up): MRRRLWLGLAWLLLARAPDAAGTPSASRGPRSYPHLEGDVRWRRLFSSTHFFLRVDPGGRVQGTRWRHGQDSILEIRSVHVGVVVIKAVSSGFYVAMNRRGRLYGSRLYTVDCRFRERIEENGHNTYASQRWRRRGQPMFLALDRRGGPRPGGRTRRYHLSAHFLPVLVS
rRNA inh HTS: selective bacterial rRNA inhibition in E. coli; AID 720706; 350,000 tested, 1.6% active; GFP signal change (wild-type ribosome), % (concentration not given with the values); E. coli WT GFP vs humanized-ribosome RFP mutants, fluorescence, 24 h; stronger effect = lower value; DMSO median 0, no signal -100;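 active means significant combined selectivity score with lowered wild-type GFP, culture density cut under 30%, mutant RFP and density less affected; inactive means any of these conditions unmet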; further: one replicate is shown; some compounds called inactive have numbers as strong as hits
Beta cell apopt: blocks beta cell apoptosis; INS-1E cytokine-induced death, ATP luminescence, 48 h; percent of positive-control rescue, neutral wells zero; 300,000 tested, 0.8% active; protection from apoptosis, % (test concentration not listed);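 active means all replicates at 75% or more, or half of them and the mean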;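 further: 0% = cytokine-treated negative control wells and 100% = positive control rescue; higher means more ATP so stronger rescue from cytokine killing; wells of about 40 µL received 100 nL stock; the first replicate is given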
T cruzi inh: T. cruzi replication inhibition | T. cruzi beta-gal in NIH3T3, luminescence, 90 h | inhibition, % (no concentration beside the values) | 300,000 tested, 1.4% active | AID 1885;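 active means mean inhibition across valid replicates above about 55%, limit read from the data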;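 further: signal also drops with host cell toxicity which is not excluded here; 0% = plate median of DMSO wells and 100% = zero luminescence signal; higher percent means less beta-gal luminescence so fewer parasites; stock transfer was 50 nL into about 50 µL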
E coli growth: E. coli growth inhibition | Escherichia coli growth, OD600, 23 h; stronger effect = lower value | 330,000 tested, 0.21% active | OD600 absorbance (no concentration beside the values);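 active means OD600 absorbance below the run mean of sample wells minus 3.6 SD, in any replicate, cut at about 0.56 in these data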;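 further: stock transfer was 300 nL into about 60 µL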
MLL AF4-AF9 inh: blocks AF4 peptide binding to human AF9 | inhibition, % at 10 µM | 350,000 tested, 0.47% active | AID 651704 | AlphaScreen, biotin-AF4 peptide binding to FLAG-AF9;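 active means every replicate reaching a set inhibition limit, whatever the replicate mean, cut at about 25% in these data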;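 further: 0% = plate neutral control median and 100% = total signal loss; the record names both 10 and 1 µM as test concentration; the first replicate is given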
Target sequence (P42568 whole entry, looked up): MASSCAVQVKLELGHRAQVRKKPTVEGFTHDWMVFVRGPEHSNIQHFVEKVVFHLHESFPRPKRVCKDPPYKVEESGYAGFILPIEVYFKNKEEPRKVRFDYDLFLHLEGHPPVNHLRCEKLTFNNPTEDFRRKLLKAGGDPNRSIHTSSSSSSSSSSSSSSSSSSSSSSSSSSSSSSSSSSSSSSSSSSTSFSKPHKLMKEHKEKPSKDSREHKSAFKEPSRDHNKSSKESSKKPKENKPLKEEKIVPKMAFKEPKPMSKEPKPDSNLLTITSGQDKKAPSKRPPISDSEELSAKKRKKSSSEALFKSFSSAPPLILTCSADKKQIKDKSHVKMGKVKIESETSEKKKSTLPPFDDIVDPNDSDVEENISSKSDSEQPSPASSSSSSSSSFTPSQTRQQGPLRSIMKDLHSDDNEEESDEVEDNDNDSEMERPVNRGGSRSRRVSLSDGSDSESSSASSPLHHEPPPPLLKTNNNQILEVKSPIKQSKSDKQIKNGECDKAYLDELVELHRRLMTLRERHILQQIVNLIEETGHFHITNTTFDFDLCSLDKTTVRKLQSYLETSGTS
rRNA inh HTS OD600: further read-out of rRNA inh HTS, marked with its call; OD600 change, %; measured here: OD600 growth;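 optical density of the mix in the first replicate; 0 = DMSO median and -100 = no signal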
rRNA inh HTS RFP: further read-out of rRNA inh HTS, marked with its call; RFP signal change, %; measured here: RFP humanized mutant strains;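 first replicate; 0 = DMSO median and -100 = no signal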
An asterisk follows results filed as active; i = inactive; . = no result given. These rows are one share of the data; rates above refer to the full screens.

SMILES | Bfl-1 A1 inh | UCH37 DUB inh | FGF22 binding | rRNA inh HTS | rRNA inh HTS OD600 | rRNA inh HTS RFP | Beta cell apopt | T cruzi inh | E coli growth | MLL AF4-AF9 inh
COc1ccc(CCNC(=O)c2ccc(NS(=O)(=O)c3ccc4[nH]c(=O)[nH]c4c3)cc2)cc1 | 0.7 | 4.7 | . | 1 | -3 | 0.1 | 2 | -15 | 0.69 | -0.7
Cc1ccc(OCCSCc2nnc(NC(=O)Nc3cccc(Cl)c3)s2)cc1 | -0.6 | -2.4 | . | . | . | . | 6 | 6 | 0.72 | .
CC1CCN(C(=O)COC(=O)c2cc(Cl)cc(Cl)c2N)CC1 | 1.0 | -335 | i | 2 | 11 | 1.0 | -3 | -3 | 0.72 | -62
O=C1c2ccccc2S(=O)(=O)c2cc(C(=O)N3CCN(c4ncccn4)CC3)ccc21 | -0.6 | . | i | -9 | -30 | -8.8 | 0 | -7 | . | 3.5
COC(=O)c1cc(S(=O)(=O)C(C)C)c(S(C)=O)s1 (centres undefined) | -0.3 | 3.6 | i | 3 | -5 | -0.3 | -34 | -27 | 0.67 | -4.5
CCc1nc(SCC(=O)Nc2ccccc2OC)c2c(C)c(C)sc2n1 | -0.2 | 6.8 | i | -5 | -12 | 1.5 | 6 | 10 | 0.68 | -6.3
CC(C)Sc1ccc(C(=O)Nc2ccc(F)cc2F)cn1 | -0.2 | 5.1 | i | 2 | 7 | -0.2 | -9 | -2 | 0.72 | -0.9
COCC(C)NC(=O)c1oc2c(c1C)C1(CCC2)SCCS1 (centres undefined) | 0.7 | 3.1 | . | . | . | . | -12 | 17 | 0.67 | .
COc1ccc(OC)c(N(C(=O)c2snc(C(N)=O)c2N)C(C(=O)NCc2ccccc2)c2ccc(O)cc2)c1 (centres undefined) | -0.6 | -20 | i | -9 | -22 | 6.0 | 4 | -3 | 0.65 | 1.7
O=C(c1ccc(F)cc1)N1CCCC(c2ccccc2)C1 (centres undefined) | 0.3 | 2.0 | i | -8 | -1 | -1.7 | . | 7 | 0.72 | -4.1
COc1ccc(NC(=O)CCCN2C(=O)CCC2=O)cc1Cl | -0.7 | -3.0 | . | . | . | . | -3 | 1 | 0.75 | .
Cc1sc(NC(=O)COc2cccc(-n3cnnn3)c2)c(C#N)c1C | -0.7 | 2.4 | . | 2 | 6 | -1.0 | 5 | -9 | 0.72 | .
O=C(CN(C(=O)CCC(=O)Nc1nccs1)c1ccc2c(c1)OCO2)NCc1ccc(F)cc1 | 0.0 | 2.3 | i | 4 | 7 | 3.7 | -7 | 4 | 0.72 | -1.8
Cc1ccc(S(=O)(=O)Nc2cc3c4c(c2)CC(=O)N4CCC3)cc1 | 2.1 | 5.9 | i | -4 | -10 | 3.4 | 7 | -10 | 0.66 | 3.4
CSCCC(NC(=O)c1ccc(Cl)cc1Cl)C(=O)NCc1ccncc1 (centres undefined) | 0.4 | 3.3 | i | 23 | 15 | 1.1 | . | -6 | 0.65 | 0.1
O=[N+]([O-])c1ccc(Oc2ccc(S(=O)(=O)N3CCCCC3)cc2)cc1 | -0.1 | 3.1 | . | . | . | . | 11 | -7 | 0.68 | .
CCOC(=O)C1=C(c2ccccc2)OC(N)=C(C#N)C1c1cccnc1 (centres undefined) | -0.3 | 3.5 | i | 8 | -4 | -0.4 | -11 | -5 | 0.68 | -0.6
COC(=O)c1ccc(NC(=O)COc2cccc3c2OC(C)(C)C3)cc1 | -0.6 | 2.2 | i | -9 | -26 | 3.9 | . | -10 | 0.65 | -3.1
O=C(Cc1ccccc1[N+](=O)[O-])N1CCN(c2ccccc2F)CC1 | 0.4 | 0.5 | . | . | . | . | -1 | -2 | 0.66 | .
CCC(=O)N1CCc2cc(S(=O)(=O)NCCc3ccc(S(N)(=O)=O)cc3)ccc21 | 1.0 | 0.9 | i | 1 | 8 | -2.6 | 3 | 7 | 0.65 | -1.0
CCOC(=O)CC1(C)NC(=O)c2c(C)sc(C(=O)OCC)c2N1 (centres undefined) | -0.5 | -57 | . | . | . | . | -3 | -5 | 0.73 | .
CCc1ccc(S(=O)(=O)NCc2cn3cccc(C)c3n2)s1 | 0.4 | -0.2 | . | . | . | . | -12 | -15 | 0.67 | .
Cc1cccc(OCc2cc(-c3ccccc3)no2)c1C | -7.5 | 0.6 | i | -7 | -7 | 7.9 | -1 | -12 | 0.67 | -2.9
O=C(CSc1nnc(-c2ccco2)o1)NCC(=O)c1ccccc1 | 0.2 | 3.9 | . | . | . | . | -4 | -4 | 0.68 | .
Cc1cc(N2CCOCC2)c2c(N)c(Br)cc(C)c2n1 | -0.3 | 1.5 | . | . | . | . | -13 | 18 | 0.75 | .
(next part)
SMILES | Bfl-1 A1 inh | UCH37 DUB inh | FGF22 binding | rRNA inh HTS | rRNA inh HTS OD600 | rRNA inh HTS RFP | Beta cell apopt | T cruzi inh | E coli growth | MLL AF4-AF9 inh
Cn1c(=O)cc(C(=O)N/N=C/c2ccc(F)cc2)[nH]c1=O | 0.2 | . | i | 7 | 3 | 0.5 | 0 | -18 | . | -11
C=CCS(=O)(=O)N1CCCC(C(=O)c2cccc(Cl)c2)C1 (centres undefined) | -0.6 | 0.7 | i | -9 | -12 | -0.8 | -5 | 6 | 0.69 | -0.9
C=CCN(C(=O)CCC(=O)Nc1cc(C)on1)C(C(=O)NC1CCCC1)c1ccc(C)cc1 (centres undefined) | -0.5 | 1.1 | i | -4 | 1 | 1.2 | -10 | 9 | 0.7 | -2.2
O=C(Nc1nccs1)c1nc[nH]c1C(=O)N1CCN(c2ccccc2)CC1 | 0.7 | 5.8 | i | 12 | 30 | 2.5 | -3 | . | 0.7 | 2.6
Cc1cc(NC(=O)CCCC(=O)NCc2ccccc2)no1 | 0.7 | 1.1 | i | 20 | 18 | 4.3 | 1 | -13 | 0.68 | -1.2
CSc1nc2sc3c(c2c(=O)[nH]1)CC(C)(C)OC3 | -0.7 | 2.0 | i | 6 | 2 | -9.6 | 0 | 14 | 0.71 | -1.7
Cc1ccc(-c2oc3ccccc3c(=O)c2O)cc1 | -1.6 | -0.5 | i | 12 | 16 | -1.5 | 20 | -5 | 0.72 | -2.3
CCOC(=O)c1c(NC(=O)CSc2ncn[nH]2)sc(C)c1C | 0.6 | 6.2 | . | . | . | . | 0 | -6 | 0.62 | .
CCOc1ccc(S(=O)(=O)N2CCN(C(=O)C3CSC4(C)CCC(=O)N34)CC2)cc1 (centres undefined) | 2.1 | 5.9 | i | 10 | 2 | 1.5 | -1 | . | 0.64 | 8.6
CCCN(CCC)S(=O)(=O)c1ccc(C(=O)N2CC3CCC(CC3)C2)cc1 | 0.6 | 5.0 | i | -7 | -8 | 1.3 | 1 | 23 | 0.66 | -1.2
O=C1C=CN(Cc2ccccc2)CC1 | 1.0 | 4.2 | i | 22 | 17 | 6.0 | -3 | -22 | 0.69 | 1.1
N#Cc1nc(-c2ccc(OCc3ccc(Cl)cc3)cc2)oc1NCCCn1ccnc1 | 0.4 | 6.1 | . | . | . | . | -1 | 42 | 0.75 | .
CCn1cc(C(=O)N2CCn3c(nc4ccccc43)C2)c(=O)c2ccc(C)nc21 | -0.7 | 10 | i | -24 | -44 | 11 | -2 | 14 | 0.76 | -5.6
CCC(CC)NC(=O)COn1nnc2ccc(S(=O)(=O)N3CCOCC3)cc21 | 0.6 | 0.5 | . | 18 | 20 | -1.1 | -3 | -6 | 0.68 | 0.1
O=C(CCc1nnc(-c2ccc(-c3ccccc3)cc2)o1)NCCc1ccccn1 | -0.6 | 0.3 | i | -6 | 0 | -1.4 | -2 | -5 | 0.71 | -4.9
CCCNS(=O)(=O)c1ccc(OCC(=O)Nc2ccc3c(c2)OCCO3)cc1 | -0.1 | 5.5 | . | . | . | . | -1 | -8 | 0.7 | .
COc1cc(OC)nc(Oc2ccc(N)c(C)c2)n1 | 0.8 | -0.2 | i | 13 | 19 | 1.3 | -4 | -20 | 0.69 | 3.5
CC(C)(C)OC(=O)N1CCC2(CC1)Oc1ccc(Cl)cc1C(=O)C21CC(c2ccc(Cl)cc2)=NO1 (centres undefined) | 0.2 | -0.2 | i | 13 | 0 | 4.2 | 5 | 42 | 0.67 | -3.7
Oc1ccc(C(=Nc2ccccc2)c2ccccc2)c(O)c1 | . | 3.9 | i | -28 | -44 | -10 | . | . | 0.59 | 0.0
COc1ccc2c(c1)OC[C@H]1[C@H]2N2C(=O)CN(Cc3ccccc3)C(=O)[C@@]2(C)[C@H]1c1ccccc1 | . | 0.7 | i | 14 | -1 | 1.1 | . | . | . | 1.6
CCN(CC)c1ccc(C(=O)N/N=C(\C)c2cccnc2)cc1 | -0.4 | . | i | -13 | -4 | -4.8 | 2 | -10 | . | -0.5
NNC(=O)c1nc[nH]c1C(=O)Nc1ccccc1 | -0.3 | 3.0 | i | 3 | 10 | 1.7 | . | -7 | 0.7 | -16
O=C(NCCC(=O)N1CCN(S(=O)(=O)c2ccc(F)cc2)CC1)Nc1ccccc1 | . | 2.0 | i | -1 | 14 | -0.5 | . | . | 0.69 | -2.0
O=C(Cn1cnc2ccccc21)NCCCN1CCOCC1 | 1.2 | 1.4 | . | . | . | . | -2 | 7 | 0.72 | .
CCN(CC(=O)Nc1ccc(NC(C)=O)cc1)C(=O)C1CCN(C(=O)c2ccccc2C)CC1 | . | 0.4 | i | 19 | 23 | 1.5 | . | . | 0.69 | 0.5
Continuation.
SMILES | Bfl-1 A1 inh | UCH37 DUB inh | FGF22 binding | rRNA inh HTS | rRNA inh HTS OD600 | rRNA inh HTS RFP | Beta cell apopt | T cruzi inh | E coli growth | MLL AF4-AF9 inh
NC1=NC(c2cn(-c3ccccc3)nc2-c2cccs2)n2c(nc3ccccc32)N1 (centres undefined) | -0.2 | 0.0 | . | . | . | . | -3 | 1 | 0.67 | .
O=C1N2CCSC2=NC1(Nc1ccccn1)C(F)(F)F (centres undefined) | -1.0 | 0.4 | . | . | . | . | -2 | 4 | 0.79 | .
O=C1c2ccccc2C(=O)C12OC(c1ccccc1)C1(C(=O)c3ccccc3C1=O)C2c1cccc([N+](=O)[O-])c1 (centres undefined) | . | 3.6 | i | 9 | 2 | 1.1 | . | 0 | 0.64 | -37
O=C(CNC(=O)c1ccc(Br)o1)Nc1cccc(S(=O)(=O)N2CCCC2)c1 | 0.2 | 1.4 | i | 4 | 13 | 1.4 | 2 | 2 | 0.56 | 0.3
CC(C)CC(=O)Nc1ncnc2c1C(=O)CC(C)(C)C2 | 0.0 | 4.2 | . | . | . | . | 1 | -7 | 0.73 | .
CC(C)NC(=O)c1ccc2c(=O)n(CC3CCCO3)c(=S)[nH]c2c1 (centres undefined) | -0.3 | 6.7 | i | 20 | -6 | -1.8 | -9 | -13 | 0.72 | 1.4
O=C(CN1CCN(c2ccccn2)CC1)Nc1ccc2ccccc2c1 | -0.4 | 1.1 | . | . | . | . | -5 | . | 0.7 | .
CC(=O)Nc1ccc(N2CCOCC2)c(C(=O)Nc2cccc(C)c2)c1 | 0.4 | 0.6 | . | . | . | . | -2 | 11 | 0.74 | .
